2A Renilla: FMDV 2A StopGo reporter, Renilla signal. HEK cells with a luciferase reporter of 2A StopGo recoding. Potency, µM (titrated, usually from 57.5 µM), for inactives: at the highest dose signal change, negative = less light. actives 0.32% (n = 120,000). AID 1745857; active means well fitted falling curve with a large enough effect; inconclusive means small, poorly fitted or top-dose-only effect; inactive means no such curve, though single readings can be large or run the other way; further: nearly all actives have a fitted effect of over 55% in size; overnight with compound
2A firefly: lowers the firefly signal of an FMDV 2A StopGo reporter; HEK cells with a luciferase reporter of 2A StopGo recoding; Potency, µM (titrated, usually from 57.5 µM), for the others: at the top dose signal change, negative = less light; actives 0.23% (n = 120,000); AID 1745856; active = well fitted falling curve with a large enough effect; inconclusive = small, poorly fitted or top-dose-only effect; inactive = no such curve, though single readings can be large or run the other way; further: nearly all actives have a fitted effect of over 60% in size; overnight with compound
* hit, by the source's call; ? = inconclusive; & = joins results of further samples; [ ] = dose if it differs, or a comment. On the % scale 0 is the no-effect control and ±100 the full control effect; potency means the concentration at half of the fitted maximal effect. An excerpt; count on the stated rates, not on these rows.

SMILES | 2A Renilla | 2A firefly
COc1ccc(Nc2nc(-c3cc4cc(OC)ccc4oc3=O)cs2)cc1 | 12% | 35%[activator]
Cn1c(C(=O)N2CCCC(C(=O)N3CCN(c4ccccc4)CC3)C2)cc2sccc21 (stereo not given) | -11% | -19%
Cc1nn(Cc2ccccc2F)c(C)c1NC(=O)NC1CCCCC1 | -3% | 3%
COc1ccc(Br)cc1CNC(=O)c1cc2ccccn2n1 | 45%[activator] | 11%
CC(CCc1ccccc1)NC(=O)C12CC3CC(CC(C3)C1)C2 (stereo not given) | 11% | -7%
COc1ccc(NC(=O)C2CCN(S(=O)(=O)c3ccc4[nH]c(=O)ccc4c3)CC2)c(OC)c1 | 9% | 1%
COc1ccc(NC(=O)Cn2c(=O)n(Cc3nc(C)no3)c(=O)c3cc4c(cc32)OCO4)cc1 | 6% | -10%
O=S(Cc1cccc(C(F)(F)F)c1)Cc1c(F)cccc1Cl (stereo not given) | 37%[activator] | -2%
CCOc1ccc(Nc2nc(-c3c[nH]c(C(=O)N4CCCC4)c3)cs2)cc1 | 64%[activator] | 255%[activator]
COc1ccc(OC)c(NC(=O)C(Cc2ccccc2)NS(=O)(=O)c2ccc3c(c2)CCC(=O)N3)c1 (stereo not given) | 15% | -1%
COc1ccc(C(=O)N2CCN(c3ccc([N+](=O)[O-])c(-n4nc(C)c5ccccc5c4=O)c3)CC2)cc1 | -6% | -9%
O=C(NCc1ccc(C(F)(F)F)cc1)c1n[nH]c2c1CCCC2 | 0% | 114%[activator]
COc1cccc(C(CC(=O)Nc2ccc(F)c(Cl)c2)n2cccc2)c1 (stereo not given) | 11% | -17%
COc1ccc(CCNC(=O)CCCCCn2c(=O)[nH]c3cc(OC)c(OC)cc3c2=O)cc1OC | -8% | -17%
O=C1CCCC2=C1C(c1ccc(C(=O)O)cc1)c1c([nH]n(-c3ccccc3)c1=O)N2 (stereo not given) | -13% | 3%
COC(=O)Cn1c(=O)c2c(nc(Br)n2CC(=O)OC)n(C)c1=O | -2% | 3%
N#CCc1ccc(NC(=O)CNc2ccccc2Br)cc1 | 89%[activator] | 62%[activator]
O=C1/C(=C/c2ccc(F)c(Br)c2)CCc2ccccc21 | 3% | 177%[activator]
O=C(O)c1ccc(Sc2ccccn2)cc1 | 1% | 2%
COC(=O)[C@]12C[C@H](CC(=O)NCCC(C)C)C(=O)N(Cc3ccc4c(c3)OCO4)C1=C[C@H](C(C)C)O[C@@H]2C1CC1 | 102%[activator] | -13%
CN(C)c1cccc(NC(=O)C(c2ccccc2)c2ccccc2)c1 | 17% | 0%
CCCn1c(NCc2ccc(N(CC)CC)cc2)nc2ccccc21 | -14% | -16%
Cc1nc(SCC(=O)N(Cc2ccc(F)cc2)C2CCCCC2)sc1CC(N)=O | 29% | 2%
Cc1ccc(Cn2c(SCC(=O)NCc3ccccc3Cl)nc3ccsc3c2=O)cc1 | -7% | -18%
Cc1cc(NC(=O)COC(=O)c2oc3ccccc3c2C)no1 | 0% | 0%
The list goes on.
SMILES | 2A Renilla | 2A firefly
Clc1ccccc1COc1ccc(CNCc2cccnc2)cc1 | -25% | 79%[activator]
O=C(CCCc1nc(-c2ccccc2)no1)NCC1CCCO1 (stereo not given) | -15% | 4%
O=C1CSc2ccc(S(=O)(=O)Nc3ccc(F)cc3)cc2N1 | 169%[activator] | 8%
O=S(=O)(c1ccc(F)cc1)N1CCN(c2nc(-c3cccnc3)nc3ccccc23)CC1 | 29% | 18%
COc1ccccc1CNC(=O)c1oc2ccc(S(=O)(=O)N3CCCCC3)cc2c1C | -4% | -21%
O=C(CC1CC2CCC1C2)Nc1ccc(Cl)c(C(F)(F)F)c1 (stereo not given) | ? | ?
Cc1ccc(C)c(N(C)C(=O)Cc2c(C(=O)O)[nH]c3ccc(Cl)cc23)c1 | 7% | 17%
O=C(NCC(c1cccs1)S(=O)(=O)c1cccs1)c1ccc(Cl)cc1 (stereo not given) | 24% | -8%
COc1ccc2cnn(CC(=O)N(C)Cc3ccccc3)c(=O)c2c1OC | -8% | 0%
COC(=O)C1=C(C)N(c2ccccc2)C(=O)CC1C(=O)Nc1ccc(C(C)=O)cc1 (stereo not given) | -12% | -7%
C[C@]12C=CC(=O)C=C1CC[C@@H]1[C@@H]2CC[C@@]2(C)[C@H]1CC[C@]2(C)O | 3%&-2% | 14%
COC(=O)C1=C(C)NC(C)=C(C(=O)OC(C)C)C1c1cccc2nonc12 (stereo not given) | 18% | -6%
Cc1ccc(NC(=O)CSC2=NC(C)(C)N=C2c2ccc(C)cc2)cc1 | -16% | -11%
Cc1ccc(-c2cn3cccnc3n2)cc1NC(=O)Cc1ccccc1 | 1% | 0%
O=C(CSc1nc2ccccc2o1)N(Cc1ccccc1)Cc1ccccc1 | 64%[activator] | 39%[activator]
CCC(C(=O)Nc1cccc2ccccc12)n1cnc2c1c(=O)n(C)c(=O)n2C (stereo not given) | 10% | 1%
CCCNC(=O)NC(=O)CN(C)c1ccccc1 | -2% | -2%
Cc1ccc(S(=O)(=O)N(C)C(C)c2cc3ccccc3o2)cc1 (stereo not given) | 16% | 0%
CCn1cc(C(=O)NC(C)c2ccccc2)c(=O)c2cc(S(=O)(=O)N3CCc4ccccc4C3)ccc21 (stereo not given) | 22% | -15%
Cc1nc(-c2ccc(F)cc2)c(CC(=O)N2CCN(S(=O)(=O)c3ccc(F)cc3)CC2)s1 | 15% | -5%
CC(=O)NC12CC3CC(C1)CC(C(=O)NC1CCCc4ccccc41)(C3)C2 (stereo not given) | -10%[1.06 µM] | -1%
CC(=O)C1=C(O)C(=O)N(CCN2CCOCC2)C1c1ccc2c(c1)OCO2 (stereo not given) | -2% | 12%
Cc1ccc(-n2ncc3c(N4CCN(CCO)CC4)ncnc32)cc1Cl | -6% | 67%[activator]
COC(=O)Nc1nc2ccc(Sc3ccccc3)cc2[nH]1 | 30%[activator] | 62%[activator]
Cc1ccccc1C(=O)NCC(O)c1ccccc1C(F)(F)F (stereo not given) | 15% | 0%
The listing continues:
SMILES | 2A Renilla | 2A firefly
Cc1ccc(NC(=O)CN2c3cccc4cccc(c34)S2(=O)=O)cc1S(=O)(=O)N1CCCCC1 | 51%[activator] | 6%
Cc1cnc2c(S(=O)(=O)NCCC3CCCO3)cccc2c1 (stereo not given) | 84%[activator] | -8%
CCN(CC)CC12CC3CC(C)(CC(C)(C3)C1)C2 | 5% | 5%
CCOC(=O)c1cc(C(C)(O)CCC=C(C)C)on1 (stereo not given) | 8% | 0%
COc1ccccc1-n1c(-c2ccc(C)cc2)cn2c3c(=O)n(C)c(=O)n(C)c3nc12 | -11% | -14%
O=C(NN=C(C1CC1)C1CC1)c1cccc([N+](=O)[O-])c1 | 0% | 0%
CCCCOc1ccc2c(=O)c(Oc3ccc(OC)cc3)c(C(F)(F)F)oc2c1 | -8% | -3%
Cc1ccc(Cn2nc(C)c3cc(C(=O)N4CCN(CC(=O)N5CCOCC5)CC4)sc32)cc1 | 6% | 14%
CCOC(=O)c1c(NC(=O)c2cc(OC)c(OC)c(OC)c2)sc2c1CCCC2 | -11% | -5%
CCOc1ccc(C(C)=O)cc1COc1ccc(C#N)cc1OC | 3%[1.06 µM] | -2%
CCCCCOc1ccc(NC(=O)Cc2csc(C)n2)cc1 | -5% | 7%
Clc1ccc(-c2cn3ncsc3n2)cc1 | -4% | 0%
COc1ccc(CNC(=O)Cc2ccc(NC(=O)N3CCSc4ncccc43)cc2)cc1OC | -19% | -15%
CC1CCN(c2nn3c(=O)c(C(=O)NCCc4ccccc4)cnc3s2)CC1 | -10% | -7%
COc1ccc2c(C)c(CCC(=O)N3CCOCC3)c(=O)oc2c1 | -1% | 126%[activator]
Cc1cc(C)c(S(=O)(=O)N2CCN(c3ccc(N4CCCCC4)nn3)CC2)cc1C | 54%[activator] | 24%
CCOCCCNc1nc2c(c(=O)[nH]c(=O)n2C)n1CCOC | 5% | 21%
CC(C)C(C(=O)Nc1ccc(NC(N)=O)cc1)c1ccc(Cl)cc1 (stereo not given) | 41% | 46%[activator]
CC(C)OCCCN1C(=O)c2[nH]nc(-c3ccccc3O)c2C1c1cccc(OCc2ccccc2)c1 (stereo not given) | 5% | -15%
CCCc1nn2c(=O)cc(COC(=O)c3ccc(NC(=O)COc4ccc(F)cc4)cc3)nc2s1 | -12% | 0%
CC(C)CNCc1cccc(C(N)=O)c1 | -7% | -9%
CC(C(=O)Nc1ccc2[nH]c(=O)[nH]c2c1)N(C)Cc1ccc(Br)cc1 (stereo not given) | 7% | 17%
CCC(CO)Nc1nc2c(c(=O)n(C)c(=O)n2C)n1Cc1c(Cl)cccc1Cl (stereo not given) | -8% | -6%
CCn1c(=O)n(CC(=O)NC2(c3noc(C)n3)CCCCC2)c2ccccc21 | -10% | -5%
O=C(Nc1ccc2oc(-c3ccc(F)cc3)cc(=O)c2c1)c1ccco1 | 12% | 96%[activator]
The listing continues:
SMILES | 2A Renilla | 2A firefly
Cc1noc(CN2CCC(c3ccnn3CCO)CC2)n1 | -8% | 7%
CCCSc1ncc(Cl)c(C(=O)Nc2nnc(CC)s2)n1 | 18% | 13%
Cc1cc(=O)[nH]c2nnc(SCc3cccc(C(F)(F)F)c3)n12 | 20% | 12%
COc1ccc(CCNC(=O)c2c(C)oc3ncn(CC(C)C)c(=O)c23)cc1OC | -1% | -1%
COc1ccc(CCNC(=O)CSCc2nc(-c3cccc(C)c3)oc2C)cc1OC | ? | ?
CCCNc1ncnc2onc(-c3ccc(C)cc3)c12 | 15% | 8%
CCOc1ccc2c(c1)c(=O)c(S(=O)(=O)c1ccc(CC)cc1)cn2CC | 164%[activator] | 1%
COc1ccc(C(=O)Nc2cccc(C(=O)OCc3cc(=O)n4nc(C5CC5)sc4n3)c2)cc1 | -9% | ?
CN1CCN(c2nc3c(c(=O)n(C)c(=O)n3C)n2Cc2cccc3ccccc23)CC1 | -2% | 5%
Cc1cc(NC(=O)c2cc(-c3ccc(Br)cc3)on2)nn1Cc1ccc(Cl)cc1 | -7% | 5%
CCc1ccc(C2CC(=O)NC(NC(=O)c3ccc(C(C)(C)C)cc3)=N2)cc1 (stereo not given) | -2% | 4%
O=C(Oc1ccc(F)cc1)c1ccc(-c2nc3ccccc3s2)s1 | 8% | 10µM*
c1ccc(-c2noc(CSc3nc4ccccc4o3)n2)cc1 | -4% | 116%[activator]
Cc1ccc(C(=O)NCc2coc(-c3cccs3)n2)cc1[N+](=O)[O-] | -11% | -6%
COC(=O)C1=C(C(=O)OC)SC(=C(Cl)C(=S)Nc2cccc(C)c2)S1 | 10% | 51%[activator]
CCOC(=O)c1cccc(NC(=O)N2CCC(CN3CCCCCC3)CC2)c1 | 10% | 10%
CC(C)C(=O)OC1=CN(Cc2ccccc2)S(=O)(=O)c2ccccc21 | 8% | -3%
Cc1ccccc1NC(=O)c1cc2c([nH]c1=O)CC(C)(C)CC2=O | -1% | 82%[activator]
Cc1cccc2cc(CN(CC3CCCO3)S(=O)(=O)c3ccc(Cl)cc3)c(=O)[nH]c12 (stereo not given) | 0% | 39%[activator]
CC(N)c1ccc(NS(C)(=O)=O)cc1 (stereo not given) | -8%[1.06 µM] | 6%
Cn1c(=O)c2c(nc(Nc3cccc(Cl)c3)n2CC(=O)O)n(C)c1=O | -1% | 0%
COc1cccc2cc(-c3csc(Nc4cccc(C(F)(F)F)c4)n3)c(=O)oc12 | -3% | 8%
COc1ccc(Cl)cc1NC(=O)CN(C)C(=O)c1cc(=O)c2ccccc2o1 | 50%[activator] | 10%
Cc1nc(C)c(-c2ccc(SCC(=O)Nc3cccc(C)c3C)nn2)s1 | 31%[activator] | 7%
Cc1nc(CN2CCN(C(=O)NCC(C)(C)N(C)C)CC2)cs1 | 14% | 17%
Cc1cc(C(=O)N(C)C2CCS(=O)(=O)C2)c2ccc(F)cc2n1 (stereo not given) | -8% | -5%
N#Cc1c(Cl)nc(N/N=C/c2ccc([N+](=O)[O-])cc2)c(Cl)c1Cl | -5% | -2%
Cc1cccc(NC(=O)NCC2CCN(CCc3ccc(F)cc3)CC2)c1C | 0% | 9%
O=C(NCCc1csc2nc(-c3ccccc3F)nn12)c1ccco1 | 5% | 28%

Structural class: the entries above with an NH in an aromatic ring (13)
SMILES | 2A Renilla | 2A firefly
COc1ccc(NC(=O)C2CCN(S(=O)(=O)c3ccc4[nH]c(=O)ccc4c3)CC2)c(OC)c1 | 9% | 1%
CCOc1ccc(Nc2nc(-c3c[nH]c(C(=O)N4CCCC4)c3)cs2)cc1 | 64%[activator] | 255%[activator]
O=C(NCc1ccc(C(F)(F)F)cc1)c1n[nH]c2c1CCCC2 | 0% | 114%[activator]
COc1ccc(CCNC(=O)CCCCCn2c(=O)[nH]c3cc(OC)c(OC)cc3c2=O)cc1OC | -8% | -17%
O=C1CCCC2=C1C(c1ccc(C(=O)O)cc1)c1c([nH]n(-c3ccccc3)c1=O)N2 (stereo not given) | -13% | 3%
Cc1ccc(C)c(N(C)C(=O)Cc2c(C(=O)O)[nH]c3ccc(Cl)cc23)c1 | 7% | 17%
COC(=O)Nc1nc2ccc(Sc3ccccc3)cc2[nH]1 | 30%[activator] | 62%[activator]
CCOCCCNc1nc2c(c(=O)[nH]c(=O)n2C)n1CCOC | 5% | 21%
CC(C)OCCCN1C(=O)c2[nH]nc(-c3ccccc3O)c2C1c1cccc(OCc2ccccc2)c1 (stereo not given) | 5% | -15%
CC(C(=O)Nc1ccc2[nH]c(=O)[nH]c2c1)N(C)Cc1ccc(Br)cc1 (stereo not given) | 7% | 17%
Cc1cc(=O)[nH]c2nnc(SCc3cccc(C(F)(F)F)c3)n12 | 20% | 12%
Cc1ccccc1NC(=O)c1cc2c([nH]c1=O)CC(C)(C)CC2=O | -1% | 82%[activator]
Cc1cccc2cc(CN(CC3CCCO3)S(=O)(=O)c3ccc(Cl)cc3)c(=O)[nH]c12 (stereo not given) | 0% | 39%[activator]
